CapD inh: blocks the Bacillus anthracis CapD enzyme; purified CapD enzyme, fluorescence intensity read-out; stronger effect = lower value; some hits fall short of the stated cut; z-score (concentration not given with the values); actives 0.23% (n = 140,000); AID 492967;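 active = z-score under -4 in either of two replicates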;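 also: stock transfer was 100 nL into about 40 µL; score is relative to mean and spread of the plate; one replicate is shown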
AID504770: growth inhibitors of E. coli YBA685 in a screen for V. cholerae RctB (chromosome II replication) inhibitors; E. coli YBA685 rctB-dependent plasmid, OD600 growth, 3 h; stronger effect = lower value; z-score (no concentration beside the values); actives 0.27% (n = 130,000);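 active = z-score under -2 on both plates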;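 also: wells of about 30 µL received 100 nL stock; score is relative to mean and SD of the test wells; the first replicate is given; strong numbers were not always called active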
* hit, by the source's call; . = not tested or not shown; & = joins results of further samples.

The line under a structure holds: AID504770, CapD inh
#1 Cc1cc(C)c2c(n1)nn1c(C)c(CCC(=O)NC(C)C)c(C)nc21
  1.4, -0.015
#2 CCN(Cc1ccccc1)C(=O)Cc1c[nH]c2ccccc12
  0.95, .
#3 O=[n+]1cc(-c2ccc(Br)cc2)n([O-])c2c1CCC2
  -0.95, -0.23
#4 COc1cccc(OC)c1OCCn1c(-c2ccc(Cl)cc2)nc2ccccc2c1=O
  ., -0.14
#5 Cc1ccc2oc(-c3ccc(NC(=O)c4ccccc4F)c(C)c3)nc2c1
  ., 0.46
#6 CCOC(=O)CSC(=S)NCc1ccccc1
  ., -0.55
#7 CC(CCc1ccccc1)NC(=O)C(C)N1CCN(C(=O)c2ccccc2)CC1 (stereo unspecified)
  0.55, .
#8 COc1ccc(C2(N3CCOCC3)Oc3ccccc3C(C#Cc3ccccc3)=C2C)cc1 (stereo unspecified)
  ., -0.56
#9 COc1cccc(CNS(=O)(=O)/C=C/c2ccc(OC)c(OC)c2)c1
  ., 1.2
#10 CCc1nnc(NC(=O)Cc2coc3ccc(C)cc23)s1
  -0.25, -0.96
#11 COC(=O)N/N=C/c1ccccc1Br
  -0.4, .
#12 CC1(C(=O)Nc2ccccc2)Cc2ccccc2C(=O)O1 (stereo unspecified)
  -0.75, -0.43
#13 CC(C)(C)c1ncc(S(=O)(=O)c2ccc(C(F)(F)F)cn2)c(N)n1
  1.9, -0.055
#14 CCC(C)(C)c1ccc(S(=O)(=O)NCCOc2ccc(OC)cc2)cc1
  ., 0.07
#15 CC1=NN(c2ccc(C(=O)NCc3nc4ccccc4[nH]3)cc2)C(=O)C1
  ., -0.7
#16 COc1ccc(N2CCN(CC(O)COc3ccccc3)CC2)cc1 (stereo unspecified)
  -0.1, .
#17 COCCn1ccc2c(OCC(=O)NCc3ccco3)cccc2c1=O
  1.4, .
#18 Nc1c(S(=O)(=O)c2ccccc2)csc1C(=O)O
  ., -0.59
#19 Cc1nc(CSc2nc(N)c(C#N)cc2C#N)cs1
  -0.65, .
#20 CC(=O)Oc1ccccc1C(=O)NCCC1=CCCCC1
  2.1, -0.27
#21 Cc1ccn2cc(-c3cc4ccccc4oc3=O)nc2c1
  0.2, 0.01
#22 COc1ccc(C2C(C#N)=C(N)OC(C)=C2C(=O)OCc2ccccc2)cc1 (stereo unspecified)
  -0.9, 20
#23 COC(=O)c1ccccc1NC(=O)CN(c1ccc(OC)c(OC)c1)S(=O)(=O)c1ccc(C)cc1
  ., 0.06
#24 CN(C(=O)C1CCCCC1C(=O)O)c1ccccc1 (stereo unspecified)
  0.8, 0.22
#25 NC(=S)N1N=CCC1(O)C(F)(F)F (stereo unspecified)
  0.15, .
#26 O=C(/C=C/c1ccc(F)cc1)Nc1ccc(S(=O)(=O)N2CCCC2)cc1
  -1.1, -0.12
#27 Cc1ccccc1NC(=O)N(Cc1ccco1)C(=O)CC#N
  2, 0.64
#28 O=C(O/N=C/c1ccc2c(c1)OCO2)c1ccco1
  ., -0.04
#29 Cc1c(NC(=O)NCc2ccccc2)n(C)c(=O)n1-c1ccccc1
  -0.15, -0.015
#30 O=C(c1ccc(Cl)cc1)N1CCOCC1
  -0.5, 0.11

(list continues)
The line under a structure holds: AID504770, CapD inh
#31 CN(Cc1ccccc1)Cc1c(O)ccc2ccccc12
  -0.35, 4
#32 COc1ccc(OC)c(NC(=O)c2cc(-c3ccccc3)nc3ccccc23)c1
  ., -0.41
#33 CC1=CC(=O)/C(=C2/Sc3ccccc3N2C)C(=O)O1
  0.15, .
#34 NCCCCCC(=O)O
  0.4, -0.21&112
#35 Nc1nc(NCc2ccco2)nn1-c1ccccc1
  -1.3, -0.085
#36 CN(C1CCN(Cc2cccc(Cl)c2)C1)S(=O)(=O)c1cc(Br)ccc1Br (stereo unspecified)
  ., 0.92
#37 COc1ccc(C2CC(=O)C3=C(C2)Nc2ccccc2NC3c2cc3c(cc2Cl)OCO3)cc1 (stereo unspecified)
  ., 0.04
#38 Cc1ccc(N/C=C/c2onc(-c3c(Cl)cccc3Cl)c2C#N)cc1
  ., 0.98
#39 O=C(C1CCCN1C(=O)c1cccs1)N1CCN(S(=O)(=O)Cc2ccccc2)CC1 (stereo unspecified)
  1.7, .
#40 CC1=CC(C)(C)N(C(=O)c2sc3ccccc3c2Cl)c2ccc(C(c3ccccc3)(c3ccccc3)c3ccccc3)cc21
  ., 0.48
#41 Cc1ccc(Nc2nc(N)nc(CSc3nc4c(n3-c3ccccc3)CCCC4)n2)cc1
  -0.15, .
#42 Cn1nc(N2CCN(CC(=O)Nc3ccc(OC(F)(F)F)cc3)CC2)c(=O)n(C)c1=O
  -0.2, .
#43 N#Cc1cnn(-c2c(Cl)cc(C(F)(F)F)cc2Cl)c1N
  -0.9, 0.48
#44 Cc1cc(C)nc(SCc2nnc(SC/C=C/c3ccccc3)o2)n1
  0.3, -0.26
#45 CC1CC(=O)N(c2cccc(C(=O)O)c2)C1=O (stereo unspecified)
  -0.1, .
#46 COc1ccc(S(=O)(=O)N2CCc3nc4ccccc4c(C(=O)O)c3C2)cc1
  ., -0.11
#47 CCCS(=O)(=O)c1c(S(=O)(=O)CCC)c2cc(-c3ccncc3)ccn2c1C(=O)c1ccc(Br)cc1
  ., 0.41
#48 COC(=O)C1=C(C)N(C)C(=O)NC1c1ccc(OC)c(Br)c1 (stereo unspecified)
  -0.55, 0.12
#49 CNC(=O)CCC(=O)Nc1cc(Cl)ccc1Cl
  -0.4, 0.29
#50 Cn1ccnc1SCCN
  -0.05, .
#51 CC1CCC(NC(=O)c2cncc(Br)c2)CC1 (stereo unspecified)
  -0.05, 0.14
#52 CC(Oc1ccc(Cl)cc1Cl)C(=O)Nc1ccc2oc(-c3ccncc3)nc2c1 (stereo unspecified)
  -0.65, 9.5
#53 O=C(O)c1ccccc1NCc1ccccc1Cl
  1.7, 17
#54 COc1cc(C2C(C(=O)OCCOc3ccccc3)=C(C)NC3=C2C(=O)CC(C)(C)C3)cc(Br)c1O (stereo unspecified)
  ., 7.7
#55 Fc1ccccc1-c1nc(-c2cccc(C(F)(F)F)c2)no1
  -0.4, 0.4
#56 CN1CCN(c2cc(C(F)(F)F)nc3ccc(F)cc23)CC1
  -0.65, -0.38
#57 Cc1ccccc1NC(=O)Nc1cc2sccc2n1C
  0.3, 43
#58 O=c1oc2ccc3ccccc3c2cc1-c1nnc(-c2ccccc2)o1
  ., 4.1
#59 CCOC(=O)C1=C(C(=O)OCC)SC2(S1)C(C(=O)OCC)=C(C(=O)OCC)SC1=C2c2ccc(C)cc2N(C(=O)C(F)(F)F)C1(C)C
  ., 0.06
#60 O=C1Nc2ccccc2O/C1=C\c1ccccc1
  0.45, 0.63

Results in sequence from above:
Entries 2 to 12 in CapD inh, in turn: ., -0.23, -0.14, 0.46, -0.55, ., -0.56, 1.2, -0.96, ., -0.43
Entries 2 to 12 in AID504770, in turn: 0.95, -0.95, ., ., ., 0.55, ., ., -0.25, -0.4, -0.75

Single entries from above.
AID504770 with no. 41 → -0.15
AID504770 with no. 57 → 0.3

Following part.
The line under a structure holds: AID504770, CapD inh
#61 O=C(CCN1N=C(c2ccccc2)CCC1=O)NCCCN1CCCCCC1
  0.1, 1.3
#62 CCN(C(=O)c1cnc(NC(C)C)cc1C(F)(F)F)c1ccc(Cl)cc1
  0.05, 36
#63 CC(=O)NC(CCc1ccccc1)C(=O)O (stereo unspecified)
  0.35, 0.96
#64 CCN(CC(=O)NCc1ccc(F)cc1)C(=O)Cn1c(C)nc2ccccc21
  0.1, .
#65 Cc1nc(Br)sc1C(=O)O
  -0.15, 3
#66 CN(C)C(=S)SCC(=O)N1c2ccccc2NC(=O)C1(C)C
  0.1, .
#67 COC(=O)c1ccc(CNC(=O)C(C)Sc2ccccc2)cc1 (stereo unspecified)
  -0.15, .
#68 Cc1ccccc1N1C(=O)c2ccccc2S1(=O)=O
  -0.55, 3.5
#69 CC[C@@H](C(=O)C(C)[C@@H](O)[C@H](C)CCc1ccc(C)c(O)c1C(=O)O)C1OC(CC)(C2CC[C@](O)(CC)[C@H](C)O2)C[C@@H]1C (stereo partly specified)
  -0.05, -0.33
#70 COc1cc(CNCc2ccco2)ccc1OCC(N)=O
  -1.7, .
#71 Fc1ccc(-c2cn3nc4c(nc3n2)[nH]c2cc(OC(F)(F)F)ccc24)cc1
  ., 0.11
#72 COc1ccc(Br)cc1C1CC(=O)Nc2c1cc(Br)c1ccccc21 (stereo unspecified)
  ., -0.035
#73 O=C(NCCCN1CCOCC1)NCc1cccc2ccccc12
  -1.2, -0.53
#74 CC(c1ccccc1)N1C(=O)NC(=O)/C(=C/c2coc3ccccc3c2=O)C1=O (stereo unspecified)
  -0.25, 0.17
#75 CCCCN1C(=O)c2ccc(C(=O)N3CCc4ccccc43)cc2C1=O
  -0.1, .
#76 CCCS(=O)(=O)c1c(S(=O)(=O)CCC)c2ccc(C(N)=O)cn2c1C(=O)c1ccc(C)cc1C
  ., -0.44
#77 O=C(OCc1cccc(Oc2ccc(Cl)cc2)c1)N1CCN(c2cc(C(F)(F)F)ccn2)CC1
  ., 59
#78 CCc1ccc(NC(=O)c2ccc(F)c(S(=O)(=O)NCCc3ccccc3)c2)cc1
  ., -0.45
#79 CC(c1ccccc1)N1CCN(C(=O)c2csc(-c3cnccn3)n2)CC1 (stereo unspecified)
  ., -0.095
#80 COc1cc(/C=C2/C(=O)N(c3cccc(Br)c3)N=C2C)ccc1OC(C)C
  ., -0.17
#81 O=c1c2ccccc2c(-c2ccccc2)nn1CN1CCCCC1
  ., 0.18
#82 CCc1ccc(NC(=O)CN2C(=O)CCc3cc(S(=O)(=O)N4CCCCC4)ccc32)cc1
  -0.4, 0.67
#83 N#CCC(=O)Nc1ccc(Cl)cc1Cl
  ., -0.83
#84 COCc1nc2ccc(C)cc2c2c1C(=O)N(NC(=O)c1ccccc1CCc1ccccc1)C2=O
  ., 0.22
#85 CN(C(=O)Cn1c(=O)n(CCCCC(=O)NC2CCCC2)c(=O)c2ccccc21)C1CCCCC1
  0.4, 0.23
#86 Cc1ccc(C=Nc2ccc(Nc3ccccc3)cc2)s1
  -1.1, -2.8
#87 O=C(Nc1nccs1)c1ccc2c(c1)CCCC2
  -0.95, -0.02
#88 CNC(=O)Nc1ccc2nc(C)oc2c1
  0.1, -0.075
#89 Cc1ccc(C(=O)CC(C(=O)O)c2cn(CCC#N)c3ccccc23)cc1 (stereo unspecified)
  1.2, 1.2
#90 O=c1cc(CSc2nc(Nc3ccc(F)cc3)c3ccccc3n2)nc2ccc(Cl)cn12
  ., -0.27

A different layout for four compounds above:
[77] O=C(OCc1cccc(Oc2ccc(Cl)cc2)c1)N1CCN(c2cc(C(F)(F)F)ccn2)CC1
  AID504770: .
  CapD inh: 59

[78] CCc1ccc(NC(=O)c2ccc(F)c(S(=O)(=O)NCCc3ccccc3)c2)cc1
  AID504770: .
  CapD inh: -0.45

[79] CC(c1ccccc1)N1CCN(C(=O)c2csc(-c3cnccn3)n2)CC1 (stereo unspecified)
  AID504770: .
  CapD inh: -0.095

[80] COc1cc(/C=C2/C(=O)N(c3cccc(Br)c3)N=C2C)ccc1OC(C)C
  AID504770: .
  CapD inh: -0.17

(listing goes on)
The line under a structure holds: AID504770, CapD inh
#91 CC(C)N=C1NN=C(c2cccs2)CS1
  -0.55, .
#92 O=C(NC1CCN(C(=O)c2cccs2)CC1)c1ccccc1
  0.35, -1.1
#93 Cc1ccc(S(=O)(=O)N(C)CC(=O)N2CCC(Cc3ccccc3)CC2)cc1
  -0.8, -0.09
#94 O=C(Nc1ccccc1-c1nc2ccccc2[nH]1)c1ccc(S(=O)(=O)N2CCOCC2)cc1
  ., 0.47
#95 CC(CN1C(C)CCCC1C)OC(=O)c1cccc(F)c1 (stereo unspecified)
  -1.1, -0.34
#96 Cc1ccc(CSc2nnc(CCC(=O)O)c(=O)n2N)cc1
  -0.8, .
#97 C/C(=N\O)C(=O)NCCN1CCCCC1
  0.75, -0.065
#98 COc1ccc2[nH]c(=O)c(CN(Cc3ccc4c(c3)OCO4)C(C)=O)cc2c1
  -0.15, .
#99 COC(=O)COc1ccccc1OC
  -0.6, .
#100 NNC(=O)c1cnn(-c2ccc(Cl)cc2)c1C(F)(F)F
  ., -0.28
#101 O=S(=O)(c1ccc(Cl)c(Cl)c1)N1CCn2c(nc3ccccc32)C1
  -0.6, -0.74
#102 CCOC(=O)C1=NNC2C(=O)N(c3cccc(C)c3)C(=O)C12 (stereo unspecified)
  ., 6
#103 COc1ccc(C(=O)N(CC(=O)NC2CCCC2)Cc2ccc3c(c2)OCO3)cc1OC
  -1.2, .
#104 O=S(=O)(/N=C1\SCCN1S(=O)(=O)c1ccc(Cl)cc1)c1ccc(Cl)cc1
  0.5, -0.1
#105 Cc1nc(S(=O)(=O)N(C)Cc2ccccc2)c(C#N)c(C)c1Cl
  ., 0.61
#106 CCOC(=O)CC(=O)CSc1nnc(NC(=O)c2c(F)cccc2F)s1
  ., 0.22
#107 CC(C)(C)c1nnc2n1N=C(c1ccc(Br)s1)CS2
  -0.5, .
#108 NCC(c1ccc(F)cc1)N1CCCCCC1 (stereo unspecified)
  1.5, .
#109 CCOc1ccc(NC(=O)CN2N=C(c3ccc(C)cc3)CCC2=O)cc1
  0.3, 0.91
#110 CNc1nccc(C(F)(F)F)c1C(=O)Nc1c(C)cccc1C
  -0.15, -0.44
#111 CC(=O)N1c2ccccc2N(Cc2ccccc2)C(=O)CC1c1ccccc1 (stereo unspecified)
  ., -1.1
#112 COc1ccc(O)c(C2=Nc3ccccc3N=C(c3ccc(Cl)cc3)C2)c1
  ., 0.23
#113 COc1cc(-c2[nH]nc3c2C2(C(=O)Nc4ccc(C)c(Br)c42)C(C#N)=C(N)O3)cc(OC)c1OC (stereo unspecified)
  ., 0.64
#114 O=C(O)CSc1nnc(C2CCCCC2)n1/N=C/c1cccc(F)c1
  2.1, .
